Compound activity (PubChem BioAssay)
Ba CapD inh: CapD enzyme inhibition. z-score (concentration not given with the values). hit rate 0.23% among 140,000. purified CapD enzyme, fluorescence intensity read-out; stronger effect = lower value; some hits fall short of the stated cut;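 active = z-score under -4 in either of two replicates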;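 also: stock transfer was 100 nL into about 40 µL; score is relative to mean and spread of the plate; one replicate is shown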
AID504770: growth inhibitors of E. coli YBA685 in a screen for V. cholerae RctB (chromosome II replication) inhibitors; E. coli YBA685 rctB-dependent plasmid, OD600 growth, 3 h; stronger effect = lower value; z-score (test concentration not listed); hit rate 0.27% among 130,000;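 active = z-score under -2 on both plates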;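 also: wells of about 30 µL received 100 nL stock; score is relative to mean and SD of the test wells; the first replicate is given; strong numbers were not always called active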
The depositor's hits bear a star; x = no result given; & = joins results of further samples.

SMILES	Ba CapD inh	AID504770
Nc1nc(CSc2nc3ccccc3[nH]2)nc(N2CCOCC2)n1	0.43	x
CCOC(=O)c1sc2nc(SCc3cc(C(C)=O)ccc3OC)n(CC3CCCO3)c(=O)c2c1C (configuration not stated)	-0.36	x
O=C(Nc1cccc(Cl)c1)OC1CCCCC1	x	-0.25
COc1ccc(NC(=O)c2csc(Cc3ccc(Cl)cc3)n2)cc1	-0.84	x
CN(CCO)c1cc(N2CCN(c3cccc(Cl)c3)CC2)c2nonc2c1[N+](=O)[O-]	-1	x
Cc1ccccc1CSc1nnc2c(n1)[nH]c1ccccc12	-0.04	-0.6
COc1cc(C=Nn2c(-c3ccc(C)cc3)n[nH]c2=S)ccc1OC(C)=O	-0.42	0.45
O=C(C1CCN(S(=O)(=O)c2cnc[nH]2)CC1)N(CCc1ccccc1)Cc1ccccc1	0.28	-0.15
O=C(CCC(=O)Nc1ccc(Br)cn1)NCC(O)c1ccc(O)cc1 (configuration not stated)	-0.14	x
O=C1CSC(=O)N1CCN1C(=O)CSC1=O	0.25	-0.5
O=C(NCc1ccc(F)cc1)c1nn2c(c1Br)NC(c1ccccc1)CC2C(F)(F)F (configuration not stated)	-0.51	x
O=C(N/N=C/c1cc2c(cc1Cl)OCO2)c1ccc2nonc2c1	0.36	x
COc1ccc(C(=O)NCCc2cc3c(C)ccc(C)c3[nH]c2=O)cc1OC	0.51	-0.45
c1ccc(CN2CN(c3nccs3)CN(c3nccs3)C2)cc1	-0.51	-0.1
NC(=O)C1CCN(c2ncnc3sccc23)CC1	x	0.1
COc1ccc(N=c2cc(-c3ccc(OC)cc3)oc3ccc(O)cc23)cc1	2.5	-0.4
CCc1ccc(OCC(=O)Nc2ccc(-c3nc4ccccc4o3)c(O)c2)cc1	0.84	-0.45
CCCc1nc2ccccc2[nH]1	-1	-0.8
CCOC(=O)c1sc(SCC(=O)c2ccc(Cl)cc2Cl)nc1C	9.6	-0.3
CCCOC(=O)c1ccc(NC(=O)/C=C/c2ccccc2)cc1	-0.1	-1.4
CC(C(=O)O)n1nnc2ccccc21 (configuration not stated)	0.2	-0.15
Cc1cccc(NC(=O)CNC(=O)c2ccc3c(=O)[nH]c(CN4CCOCC4)nc3c2)c1C	x	2
COc1ccc(Cn2c(C)c(CNC(C)(C)C)c(C(=O)O)c2C)cc1	0.41	-1.2
CCOc1cccc(OCC)c2c(C)nc(C)c1-2	0.18	-0.25
O=S(=O)(Cc1ccccc1)N1CCC(On2nnc3ccccc32)CC1	0.51	-0.1

Going on with the list:
SMILES	Ba CapD inh	AID504770
Cc1cccc(NC(=O)CSCc2n[nH]c(=O)[nH]2)c1C	0.33	-0.75
C=CCOC(=O)COc1cc(C)cc2oc(=O)c3c(c12)CCCC3	2	x
NNC(=O)c1ccc(NN)cn1	x	-1.1
CCc1ccc(CNC(=O)CN(C)c2nnc(N3CCCC3=O)s2)cc1	-0.24	-0.65
CC(C)C(NC(=O)Cc1ccccc1)C(=O)N1CCN(S(=O)(=O)c2ccccc2C#N)CC1 (configuration not stated)	x	-2.1
CC1OCC(OC(=O)c2ccccc2)CO1 (configuration not stated)	x	0.75
Cc1cc2nc(N3C(=N)SCC3=O)sc2cc1C	x	0.35
Cn1cnnc1SCC(N)=O	x	1.1
COC(=O)CC1SC(=O)N(CNc2ccc([N+](=O)[O-])cc2)C1=O (configuration not stated)	-1.2	x
O=C(CSc1ncn[nH]1)N1N=C2/C(=C/c3ccco3)CCCC2C1c1ccco1 (configuration not stated)	x	-0.5
CCCSc1nc(C)cc(=O)[nH]1	0.41&9.3	-0.65&-0.5
O=C(OCC(=O)N1c2ccccc2Sc2ccccc21)c1ccc(Br)o1	x	0.85
CCOc1cc(C=C2C(=O)NC(=S)NC2=O)ccc1OCCOc1ccccc1OC	-0.64	x
O=C(c1cc(Cl)nc(Cl)c1)N1CCC(c2nc(-c3cccs3)no2)CC1	-0.01	x
Cc1cc(C)n(Cc2c(Cl)cccc2Cl)n1	-0.3	2.1
COc1cc(S(=O)(=O)NC2CCCCCC2)c(C)cc1C	-1.6	2.1
CCOc1cc(C(=O)Nc2ccc(O)c(-c3nc4ccccc4o3)c2)cc(OCC)c1OCC	0.3	x
CCOc1cc(-c2ccccc2O)ncn1	-0.3	x
Fc1ccc(OCCc2nc(-c3ccc(Cl)cc3)no2)cc1	-0.41	0.35
N#CCCCSc1nnc(-c2ccccc2F)n1-c1ccccc1	x	-1
Cc1ccsc1C(=O)Nc1nccs1	9	0.9
COC(=O)c1ccc(Oc2cc(Cl)cc(Cl)c2)o1	0.43	x
CCCn1nc(Oc2nc(N(C)C)nc(N(C)C)n2)ccc1=O	-0.3	x
Cc1onc(-c2ccccc2)c1C#N	-0.31	0.45
O=C(CCCCn1c(=O)[nH]c2ccsc2c1=O)NCC1CCCO1 (configuration not stated)	-1	-0.3

The list goes on:
SMILES	Ba CapD inh	AID504770
CCOC(=O)C1=C(CSc2nc(-c3ccncc3)ccc2C#N)OC(N)=C(C#N)C1c1cccnc1 (configuration not stated)	-0.18	x
CCN(CC)S(=O)(=O)c1ccccc1	x	-1.3
C=CCn1c(=O)c(=O)n(CCOC)c2ccc(C(F)(F)F)cc21	0.87	x
CNC(=O)n1ccc(C(=O)N2CCCCC2)n1	-0.095	-0.15
CC(SCC(=O)NC12CC3CC(CC(C3)C1)C2)C(=O)O (configuration not stated)	-0.72	-0.6
O=C(CN(CC(=O)Nc1ccc2c(c1)OCCO2)S(=O)(=O)c1ccccc1)Nc1ccc2c(c1)OCCO2	x	0.75
COC(=O)C1=CN(Cc2ccc(F)cc2)C=C(C(=O)OC)C1c1cc2c(cc1Br)OCO2	9.3	x
O=C(Cn1cnc2c(cnn2-c2ccccc2)c1=O)NC1CCCC1	-0.56	-0.15
Cc1ccc(CNC(=O)CCCn2c(=O)c3sccc3n(CC(=O)N3CCCCC3C)c2=O)cc1 (configuration not stated)	0.63	-0.25
CCN(CC)c1cccc(OCC(=O)NCc2cccs2)c1	x	-0.3
Cc1cc(C)c(S(=O)(=O)n2ccnc2)c(C)c1	0.5	0.55
COCc1cc(N2CCCC2)nc(SCc2ccc(Cl)cc2)n1	-0.01	x
CCOc1ccc(NC(C)c2cc(Cl)ccc2O)cc1 (configuration not stated)	-0.18	-1.4
O=C(O)c1cnn2c(C(F)(F)F)cc(-c3cccs3)nc12	-0.89	0.55
CC(C)NC(=O)N1CCn2cccc2C1Cc1ccccc1 (configuration not stated)	0.24	0.15
O=C(Nc1ccc(F)cc1)NC1(C(=O)O)CCCCC1	-0.33	0
COC(=O)CCn1cc(C=C2C(=O)NC(=O)NC2=O)c(-c2ccccc2)n1	x	-0.1
CC1(C)CC(=O)c2c(noc2-c2ccccc2)C1	-0.01	-0.95
COc1cccc(-c2nnc(NC(=O)c3ccc(S(=O)(=O)N4CCCCC4C)cc3)o2)c1 (configuration not stated)	0.59	x
CN1CCN(c2ccc(NC(=O)CSc3ccc(Cl)cc3)cc2)CC1	x	0.05
CN(CC(=O)Nc1ccc(F)cc1)C(=O)CSc1nnc(Cc2ccccc2)o1	x	-0.3
Cc1ccn(CCC(=O)Nc2cccc(C(F)(F)F)c2)n1	-0.09	-0.85
O=C(O)CC(c1ccncc1)c1c[nH]c2ccccc12 (configuration not stated)	x	1.1
O=C(COc1ncnc2cc(Cl)ccc12)c1ccccc1	0.15	-0.25
Cc1cc(C(C)(C)C)cc(C)c1C#N	0.8	x

Complete entries, looked up by structure. Values in the order: Ba CapD inh	AID504770
CCOc1ccc(NC(C)c2cc(Cl)ccc2O)cc1 (configuration not stated) is listed as -0.18	-1.4
COCc1cc(N2CCCC2)nc(SCc2ccc(Cl)cc2)n1 is listed as -0.01	x
CC1(C)CC(=O)c2c(noc2-c2ccccc2)C1 is listed as -0.01	-0.95

Continued.
SMILES	Ba CapD inh	AID504770
O=C(c1ccccc1)N1CCN(c2ncccn2)CC1	x	0.6
COCC(C)n1c(C)cc(C(=O)COC(=O)c2ccc3c(c2)S(=O)(=O)N=C2CCCCCN23)c1C (configuration not stated)	x	-0.55
Cc1ccc(C(=O)/C=C/Nc2ccc(C(F)(F)F)cc2)cc1	0.43	-0.3
CN1C2CCC1CC(NCCc1ccccc1)C2 (configuration not stated)	-0.19	0.75
CCOC(=O)C1CCCN(C(=O)c2cccc3ccccc23)C1 (configuration not stated)	-0.26	0.6
CCOC(=O)c1cnc(O/N=C/c2ccc(F)cc2)nc1C(F)(F)F	0.52	0.45
Cc1cc(C)c2c(-n3cccc3)n[nH]c2n1	-0.33	-0.9
N#Cc1ccc(CSc2nc3ccccc3c(=O)n2Nc2ccccc2)cc1	x	1.1
O=C(CC1OC(=O)c2ccccc21)NCc1ccc(Cl)cc1 (configuration not stated)	0.96	-0.25
Cc1ccc(C2CC(c3cccs3)=NN2C(=O)CSc2nnc(CNC(=O)c3ccco3)n2C)cc1 (configuration not stated)	1.4	x
CCOC(=O)NC(=S)NCc1cccs1	-0.09	x
CCS(=O)c1ccccc1C(=O)OCC(=O)N1CCC(c2ccccc2)=N1 (configuration not stated)	x	-0.5
COc1ccc(OC)c(C(=O)c2ccc(C(=O)O)cc2)c1	0.07	0.4
COc1ccc2ccccc2c1CN1CCN(C(=O)OCc2ccccc2CCc2ccccc2)CC1	0.26	x
Cc1cc(C)nc(SCCS(=O)(=O)c2nc3ccccc3s2)n1	0.045	-2.8
Oc1ccccc1C=Nc1ccc(Oc2ccccc2)cc1	-1.7	1.4
COc1cc(OC)cc(C(=O)NCCc2c[nH]c3cc(OC)ccc23)c1	0.64	x
CC1CCC(NC(=O)CCCn2ncn3c(cc4occc43)c2=O)CC1 (configuration not stated)	-0.96	0
O=C(CCN1C(=O)C2C3C=CC(C3)C2C1=O)Nc1c(F)cc(F)cc1Br (configuration not stated)	-0.29	x
CCc1nn(CC(=O)N(C)Cc2ccccc2)c(=O)c2cc3occc3n12	-0.79	-0.7
CC1=NN(c2cccc(Cl)c2)C(=O)/C1=C\N1CCOCC1	x	0.15
CCN(CC)S(=O)(=O)c1ccc2c3c(cccc13)C(=O)S2	-0.48	-0.25
Cn1cnnc1SCC(=O)Nc1ccc(Cl)cn1	-0.33	x
Cc1nc(-c2cccc(NC(=O)c3ccco3)c2)cs1	0.07	-1
COc1ccc(O)c(C(=O)c2cnn(C(=O)c3cccc(S(=O)(=O)N4CCOCC4)c3)c2)c1	x	-0.25

Reformatted in CSV form: part of the list above
molecule,Ba CapD inh,AID504770
COc1ccc(OC)c(C(=O)c2ccc(C(=O)O)cc2)c1,0.07,0.4
COc1ccc2ccccc2c1CN1CCN(C(=O)OCc2ccccc2CCc2ccccc2)CC1,0.26,x
CCOC(=O)NC(=S)NCc1cccs1,-0.09,x
CC1=NN(c2cccc(Cl)c2)C(=O)/C1=C\N1CCOCC1,x,0.15
CCOC(=O)C1CCCN(C(=O)c2cccc3ccccc23)C1 (configuration not stated),-0.26,0.6
COc1ccc(O)c(C(=O)c2cnn(C(=O)c3cccc(S(=O)(=O)N4CCOCC4)c3)c2)c1,x,-0.25

Next results:
SMILES	Ba CapD inh	AID504770
Cc1nc2ncc3c(n2n1)CCc1ccccc1-3	x	0.55
CCCc1cc2c(=O)c(-c3ccc4c(c3)OCCO4)c(CC)oc2cc1O	x	0.8
CCCCN1C(=O)c2ccc(C(=O)Nc3cccnc3)cc2C1=O	-0.095	-0.6
CCn1nc(C(=O)N/N=C/c2cccc(OC)c2)c2ccccc2c1=O	x	-1.1
N#Cc1c(SCC(=O)Nc2nccs2)nc2c(c1-c1ccco1)CCCC2	0.23	x
COC(=O)/C(=C(/O)CSc1nnc(-c2cccc(S(=O)(=O)N3CCCCC3)c2)o1)c1nc2ccccc2[nH]1	x	-0.1
C=CCn1c(C(C)NC(=O)CC)nc2ccccc21 (configuration not stated)	-0.28	0.5
COc1cc(OC)cc(C2=NC3(CCC(C)CC3)NC2=O)c1 (configuration not stated)	0.15	-0.85
C=CCn1c(SCC(=O)N(CCO)CCO)nc2sc3c(c2c1=O)CCC3	-1.3	x
CC1CCN(C2=NN3C(=N)/C(=C\c4ccc(SCc5ccco5)o4)C(=O)N=C3S2)CC1	-1	0.8
CC(C)CC(NS(=O)(=O)c1ccccc1)C(=O)O (configuration not stated)	x	-0.25
CSc1ccc(-c2nc(-c3ccc(Br)cc3)c(-c3ccccc3Br)[nH]2)cc1	12	x
CCOC(=O)C1=C(C)NC2=C(C(=O)C(C(=O)OCC)C(c3ccccc3OC)C2)C1c1cccc(OC)c1 (configuration not stated)	23	x
CCCCOC(=O)C1COc2ccccc2O1 (configuration not stated)	x	1.4
Cn1c(SCCOc2ccccc2)nc2ccccc21	x	0.95
CCc1nn(CCCC(=O)NCc2ccc(OC)cc2)c(=O)c2cc3occc3n12	0.15	-0.1
Cc1ccc(-c2cc(C(F)F)nc(N3CCCCC3)n2)cc1	11	0.2
CN1C=C/C(=C\C=C2/C=Nc3ccccc32)c2ccccc21	-0.8	x
CCCNC(=O)CSc1nnc(C)o1	x	-0.5
COc1cc(OC)cc(C(=O)OCC(=O)N2CCCC2)c1	x	-2.9
CCOC(=O)c1nc(N2CCOCC2)c2ccccc2n1	-2.2	-0.65
O=C(CN1C2=NCCN2c2ccccc21)c1ccc(Cl)c(Cl)c1	-0.02	x
CC(C)(C)OC(=O)N1CCC(CNC(=O)c2ccccc2)CC1	-0.68	-0.4
